# Assay outcomes (PubChem BioAssay)
# PKD1 inh = inhibitors of human PKD1 kinase; PKD1 kinase fluorescence polarization assay; inhibition, %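 (about 10 µM by stock and volumes)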; 200,000 compounds, 0.056% hits; AID 797;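 active = inhibition of 50% or more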;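 note: controls were vehicle for no effect and a reference inhibitor for full effect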
# GALR2 ag = GALR2 (human) receptor agonism. activation, %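 (tested at 5 µM)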. O43603. GALR2-expressing cells, agonist activation read-out. 140,000 compounds, 0.48% hits;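 active = above mean plus 3 SD of all compounds, about 5% in these data, not always enough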;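 note: 0% = vehicle buffer wells and 100% = reference agonist at full effect; tested in CHO reporter cells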
# Target sequence (O43603 whole entry, looked up): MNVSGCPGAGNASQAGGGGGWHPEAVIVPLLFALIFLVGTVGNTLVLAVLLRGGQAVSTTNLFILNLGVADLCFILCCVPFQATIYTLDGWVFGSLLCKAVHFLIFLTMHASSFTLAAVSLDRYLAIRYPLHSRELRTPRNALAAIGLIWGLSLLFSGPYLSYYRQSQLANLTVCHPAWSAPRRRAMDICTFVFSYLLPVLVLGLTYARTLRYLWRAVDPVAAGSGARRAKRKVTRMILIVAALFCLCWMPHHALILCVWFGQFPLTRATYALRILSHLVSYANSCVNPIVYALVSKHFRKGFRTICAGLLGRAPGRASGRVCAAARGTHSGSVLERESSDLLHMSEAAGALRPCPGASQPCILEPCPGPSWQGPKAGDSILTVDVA
# RGS16-Gao = RGS16-Galphao interaction regulator (human) | binding response (% of control), % at 10 µM | bead-based flow cytometry RGS16-Galphao binding, fluorescence; actives lie on both sides | 220,000 compounds, 0.38% hits | O15492+P09471;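 active = below 25% or above 175%, edge rows of some plates excepted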;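 note: Galphao activated by GDP with aluminum fluoride before binding; 100% = wells without compound and 0% = beads without RGS; some results beyond the cut were filed as inactive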
# Target sequence (O15492 whole entry, looked up): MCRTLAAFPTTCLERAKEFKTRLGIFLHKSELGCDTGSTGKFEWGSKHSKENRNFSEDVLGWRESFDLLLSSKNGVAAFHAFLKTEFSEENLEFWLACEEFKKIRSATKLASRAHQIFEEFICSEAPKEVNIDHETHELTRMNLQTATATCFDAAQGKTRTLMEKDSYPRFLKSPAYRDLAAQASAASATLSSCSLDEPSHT
# Target sequence (P09471 whole entry, looked up): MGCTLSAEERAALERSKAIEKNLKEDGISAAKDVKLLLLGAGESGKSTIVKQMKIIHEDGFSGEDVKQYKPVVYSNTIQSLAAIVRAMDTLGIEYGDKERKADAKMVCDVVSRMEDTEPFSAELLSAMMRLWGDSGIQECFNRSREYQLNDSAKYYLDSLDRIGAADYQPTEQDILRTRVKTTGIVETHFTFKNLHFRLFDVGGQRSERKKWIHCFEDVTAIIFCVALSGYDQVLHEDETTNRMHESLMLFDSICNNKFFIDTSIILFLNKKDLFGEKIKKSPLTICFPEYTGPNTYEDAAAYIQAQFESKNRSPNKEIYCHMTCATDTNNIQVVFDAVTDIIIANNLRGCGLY
# HSV replic up = increases HSV replication in cells; HSV replication augmentation in cells, fold increase; maximum fold increase; 220,000 compounds, 0.005% hits; AID 1956;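 active = peak rise of 1.5-fold or more in the series; inconclusive = self-fluorescent or not available for retest; tested in PC3 cells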;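 note: first round at 10 µM; read as green reporter fluorescence; hits show the peak of a series up to 25 µM; 1 = signal of infected wells without compound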
# INS promoter inh = TRM-6 insulin promoter activity inhibition. TRM-6 cells (human fetal islet line), insulin promoter-eGFP reporter, imaging; reporter expression induced with tamoxifen. inhibition, % at 2 µM. 130,000 compounds, 0.9% hits. AID 1273;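 active = inhibition above the mean plus 3 SD, with well images judged a real hit on visual review, cut at about 60% in these data, passing the limit was not always enough; inconclusive = inhibition over the cutoff but images rejected on review; inactive = inhibition not above the cutoff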
# INS promoter inh cell count = also measured in INS promoter inh; calls as there; normalized cell count, %; measured here: cell count, toxicity; reference of the scale not given here;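 cells exposed to compound for 48 h; stained nuclei by imaging scaled within each plate; lower means fewer cells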
# HSV replic up primary fold = further read-out of HSV replic up, marked with its call; fold increase; compound at 10 µM; measured here: primary screen fold increase 10 uM; tested in PC3 cells;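 GFP signal in the first replicate; 1 = infected wells without compound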
# Active calls of the source: *; i = inactive; ? = inconclusive; / = no result given.
SMILES,PKD1 inh,GALR2 ag,RGS16-Gao,HSV replic up,HSV replic up primary fold,INS promoter inh,INS promoter inh cell count
OC(Cc1ccccc1)(c1ccccc1)C1CN2CCC1CC2 (centres undefined),-7,-0.7,98,i,0.85,-52,96
Nc1nc(SCCC(F)=C(F)F)n[nH]1,-8,/,99,i,0.83,/,/
CCN(CC)P(=O)(c1nccn1C)N(CC)CC,0,/,109,i,0.94,-40,43
CCCCn1c(O)c(C(CC)=NCCN2CCOCC2)c(=O)[nH]c1=O,-3,-0.4,101,i,0.66,38,136
COc1ccc(OC)c(N=Cc2c(O)n(Cc3ccccc3)c(=S)[nH]c2=O)c1,/,/,93,i,1.1,/,/
O=c1[nH]c(=O)n(Cc2ccco2)c(O)c1C=NCCN1CCNCC1,/,/,97,i,1.2,/,/
Cc1cccc(-n2c(C)nc3ccccc3c2=O)n1,4,-0.6,105,i,1,-6,154
COc1cc(OC)cc(-n2nc(C(=O)N3CCC4(CC3)OCCO4)c3ccccc3c2=O)c1,-20,0.1,95,i,0.98,/,/
COc1ccc(CNCC(=O)N2CCC3(CC2)OCCO3)cc1,1,-1.7,102,i,0.87,-23,70
O=C1CCN(C(=O)C(Cl)Cl)N1,-4,/,106,i,0.9,7,122

# A few values from the entries so far.
# COc1ccc(OC)c(N=Cc2c(O)n(Cc3ccccc3)c(=S)[nH]c2=O)c1 @ HSV replic up primary fold: 1.1
# CCCCn1c(O)c(C(CC)=NCCN2CCOCC2)c(=O)[nH]c1=O @ PKD1 inh: -3
# OC(Cc1ccccc1)(c1ccccc1)C1CN2CCC1CC2 (centres undefined) @ INS promoter inh cell count: 96
# CCN(CC)P(=O)(c1nccn1C)N(CC)CC @ INS promoter inh cell count: 43

# Carrying on:
SMILES,PKD1 inh,GALR2 ag,RGS16-Gao,HSV replic up,HSV replic up primary fold,INS promoter inh,INS promoter inh cell count
O=P(Nc1ccccc1Cl)(c1ccccc1)c1nc2c(s1)CCCC2 (centres undefined),3,-1.1,99,i,0.92,-13,93
CN1C(=O)/C(=C\c2ccc(N3CCCCC3)o2)C(=O)NC1=S,-5,-2.9,133,?,/,-46,106
COc1ccc2oc3c(c2c1)NC(=O)CN=C3c1ccccc1,-2,/,109,i,1,/,/
O=C(Cc1ccc(Br)cc1)N1CCN(Cc2ccccc2)CC1,2,-1.6,96,i,0.96,1,197
Cn1c(O)c(C=NCCN2CCNCC2)c(=O)n(C)c1=O,4,-1.5,100,i,1.1,-24,59
CC(C)n1c(=O)c(C=Nc2ccc(F)cc2)c(O)n(Cc2ccco2)c1=O,6,-0.2,101,i,0.99,14,25
CN1CCC(OC(=O)C2c3ccccc3Oc3ccccc32)CC1,-1,-0.3,107,i,1,-87,69
CC1(C)CN=C(NCc2ccccc2Cl)S1,-1,-2.1,101,i,1.1,-14,128
O=P1(NC2CCCC2)COc2ccccc2OC1,30,0.6,84,i,0.89,/,/
O=C(Cn1ncc2c3ccccc3n(Cc3ccccc3F)c2c1=O)N1CCC2(CC1)OCCO2,-8,-0.1,93,i,0.99,-31,134

# The last 4 records of the part before open the next one.
SMILES,PKD1 inh,GALR2 ag,RGS16-Gao,HSV replic up,HSV replic up primary fold,INS promoter inh,INS promoter inh cell count
CN1CCC(OC(=O)C2c3ccccc3Oc3ccccc32)CC1,-1,-0.3,107,i,1,-87,69
CC1(C)CN=C(NCc2ccccc2Cl)S1,-1,-2.1,101,i,1.1,-14,128
O=P1(NC2CCCC2)COc2ccccc2OC1,30,0.6,84,i,0.89,/,/
O=C(Cn1ncc2c3ccccc3n(Cc3ccccc3F)c2c1=O)N1CCC2(CC1)OCCO2,-8,-0.1,93,i,0.99,-31,134
CC(C)C[C@H](NC(=O)[C@@H]1CCCN1C(=O)[C@@H](N)Cc1ccc(O)cc1)C(=O)NCC(N)=O,-2,-2.5,/,i,0.76,0,130
CN1CCN(C(=O)Cc2ccccc2)CC1,/,/,98,i,0.98,/,/
COc1cccc(CCNCc2cccc(C(F)(F)F)c2)c1,-9,/,150,i,1.1,17,82
CCN(CCNc1ccc([N+](=O)[O-])c2cccnc12)S(=O)(=O)c1ccc(Cl)cc1,1,-4.5,100,i,0.96,-6,27
C[C@H]1CCCC(=O)CCC/C=C/c2cc(O)cc(O)c2C(=O)O1,3,-2.1,110,i,0.87,29,53
COC(=O)C1=Nc2ccccc2/C1=C\c1c(O)n(-c2ccc(OC)cc2)c(=O)[nH]c1=O,-1,-0.6,97,i,1.2,-35,87
Clc1ccc(OCC#CCN2CCCCCC2)cc1,-6,/,102,i,0.93,/,/
CC(ON1CC1(C(F)(F)F)C(F)(F)F)(C(N)=O)C(N)=O (centres undefined),-12,-1.0,105,i,0.97,12,72
O=C(Nc1cccc(Cl)c1)OC1CN2CCC1CC2 (centres undefined),/,/,99,i,0.85,/,/
COc1cccc(N2CCN(Cc3ccc(Cl)cc3)CC2)c1,-8,0.8,103,i,1,0,90

# Compounds above containing a furan ring, fused or not (4):
SMILES,PKD1 inh,GALR2 ag,RGS16-Gao,HSV replic up,HSV replic up primary fold,INS promoter inh,INS promoter inh cell count
O=c1[nH]c(=O)n(Cc2ccco2)c(O)c1C=NCCN1CCNCC1,/,/,97,i,1.2,/,/
CN1C(=O)/C(=C\c2ccc(N3CCCCC3)o2)C(=O)NC1=S,-5,-2.9,133,?,/,-46,106
COc1ccc2oc3c(c2c1)NC(=O)CN=C3c1ccccc1,-2,/,109,i,1,/,/
CC(C)n1c(=O)c(C=Nc2ccc(F)cc2)c(O)n(Cc2ccco2)c1=O,6,-0.2,101,i,0.99,14,25

# Next records follow:
SMILES,PKD1 inh,GALR2 ag,RGS16-Gao,HSV replic up,HSV replic up primary fold,INS promoter inh,INS promoter inh cell count
COc1ccc(C(C)=O)cc1CC(C(=O)c1ccc(Br)cc1)N(C)C (centres undefined),-13,-1.1,108,i,0.94,-27,57
COc1ccc(-n2c(C)cc(C(=O)C[N+]34CCN(CC3)CC4)c2C)cc1,-2,/,104,i,1,-7,118
Cc1cccc(N2CCN(CCc3ccccc3)CC2)c1C,-6,-0.6,103,/,/,-40,23
CC1(C)C2([N+](=O)[O-])CN3CC1([N+](=O)[O-])CN(C2)C3c1ccccn1 (centres undefined),/,/,93,i,0.95,/,/
Cc1[nH]c2ccccc2c1C(=O)C(=O)N1CCC2(CC1)OCCO2,5,/,99,i,1.1,/,/
O=c1[nH]c(=O)n(C2CCCCCC2)c(O)c1C=NCC1CCCO1 (centres undefined),-10,-0.4,89,i,0.83,0,105
O=C1NC(=O)C(=Cc2cc([N+](=O)[O-])ccc2N2CCCCC2)C(=O)N1,-6,/,106,i,1,-12,80
CN1C2CCC1CC(OC(=O)c1ccc([N+](=O)[O-])cc1)C2 (centres undefined),-16,-0.7,118,i,0.66,6,146
CCCCn1c(=O)c(C(=O)NCc2ccncc2)c(O)c2ccccc21,-1,-2.7,83,i,0.85,-24,115
COc1ccc(F)cc1C(=O)C1CCCN(Cc2cnc(C)s2)C1 (centres undefined),5,/,101,i,0.94,/,/
COc1cccc(C2CC3C(=O)C=CC2N3Cc2ccccc2)c1 (centres undefined),-3,-0.8,150,i,1.1,3,89
O=C(c1ccc(CS(=O)(=O)c2ccccc2)o1)N1CCC2(CC1)OCCO2,-4,-1.7,109,i,0.96,7,100
CN(C)CCN=Cc1c(O)n(C2CCCCCC2)c(=O)[nH]c1=O,2,-2.2,92,i,1,/,/
COc1cc2c(cc1O)C[C@H]1NCCc3cc4c(c-2c31)OCO4,-13,-1.1,94,i,0.55,-14,120
CC(C)N1CCC2(CC1)NC(CO)(CO)CO2,2,-0.7,171,i,0.89,6,98
COC1=CC(=O)OC(/C=C/c2ccccc2)C1 (centres undefined),4,-1.0,101,i,0.87,14,88
COC(=O)c1nc(-c2ccc3c(n2)C(=O)C(N)=C(OC)C3=O)c(N)c(-c2ccc(OC)c(OC)c2O)c1C,/,/,98,i,0.94,/,/
CCC(=NCc1ccco1)c1c(O)n(-c2ccccc2)c(=O)[nH]c1=O,-7,-1.0,100,i,1,65,105
Cc1ccccc1-n1c(O)c(C=Nc2ccc3c(c2)OCO3)c(=O)[nH]c1=O,16,0.6,98,?,/,/,/
C/C(=N\N1CCCCCC1)c1c(O)n(-c2ccccc2C)c(=O)[nH]c1=O,/,/,108,i,1,/,/
C=CCn1c(O)c(/C(C)=N/N2CCN(C)CC2)c(=O)[nH]c1=O,/,/,98,i,0.93,/,/
COc1ccc(P2(=O)Nc3ccccc3N2)cc1,-9,-1.3,96,i,1.1,/,/
CCN1CCN(c2ccc([N+](=O)[O-])cc2C#N)CC1,-1,/,103,i,0.96,-19,97
O=P(/C(=N/O)N1CCOCC1)(N1CCOCC1)N1CCOCC1,-10,-1.0,100,i,0.91,-7,137
S=C=Nc1ccccn1,-6,/,100,i,0.88,/,/
O=C(N/N=C/c1c(O)n(CCc2ccccc2)c(=O)[nH]c1=O)c1ccncc1,1,0.8,20,i,1.1,/,/
CCC(=NCc1ccco1)c1c(O)n(-c2ccc(C)cc2)c(=O)[nH]c1=O,-12,-1.4,97,i,1.1,-49,58
Cc1cccc(C)c1NC1=NCCCS1,-1,-2.1,103,i,0.89,0,106
COc1ccc(-n2c(O)c(/C(C)=N/Nc3ccccc3)c(=O)[nH]c2=O)cc1,/,/,97,i,0.97,/,/
CCc1ccc(-n2c(O)c(/C=N/NC(=O)c3ccncc3)c(=O)[nH]c2=O)cc1,-4,1.2,98,/,/,/,/
COc1cccc(CN2CCCC(C(=O)c3ccccc3SC)C2)c1O (centres undefined),/,/,90,i,0.94,/,/
CCCC(C)C1C(C#N)=C(N)Oc2c1c(=O)oc1ccccc21 (centres undefined),-10,-0.2,492,i,0.92,30,92
CN1CCN(c2cc(N3CCNCC3)ccc2[N+](=O)[O-])CC1,-9,-1.9,114,i,0.97,50,107
CCOP(=O)(OCC)C(O)c1ccc(OC)cc1OC (centres undefined),1,-0.4,101,i,0.96,10,106
CC(=NCC1CCCO1)c1c(O)n(-c2ccc(Cl)cc2)c(=O)[nH]c1=O (centres undefined),4,-3.2,99,i,0.66,57,100
O=c1cc(CN2CC=C(c3ccccc3)CC2)c2c(ccc3ccccc32)o1,-5,-2.7,96,i,1,6,108
CN(C)C1(c2nnnn2CCOC(=O)Nc2ccc(Cl)cc2)CCCCC1,-8,-0.2,113,i,0.88,-26,92
Cc1oc(-c2ccccc2)nc1CN1C(=O)C(C)N=C(c2ccccc2F)c2cc(Cl)ccc21 (centres undefined),0,1.3,97,/,/,-41,113
CN1CCN(CCC(C#N)(c2ccccc2)c2ccccc2)CC1,-10,-3.3,101,i,0.96,/,/
COc1ccccc1OP(=O)(Nc1cccnc1)Oc1ccccc1OC,-2,-0.9,85,/,/,/,/

# These rows are one share of the data; rates above refer to the full screens.
